# Screening results as filed in PubChem.
# p53 mut binder = mutant p53 (human) binding | small molecule microarray binding, anti-GST fluorescence | 17,000 compounds, 0.4% hits | calls only;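 active means compounds whose four printed spots each glow above background more than chance allows, each with a p-value under 7%; compounds were printed on slides so no solution concentration is given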;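 further: about 2 pmol printed per array spot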
# Myc binder = binders of human c-Myc | P01106 | small molecule microarray, His-c-Myc binding, anti-His fluorescence | calls only | 17,000 compounds, 1.5% hits;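 active means spot fluorescence over background with P-value below 7% in all four replicate spots, showing protein binding; compounds were printed on slides so no solution concentration is given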;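 further: score is binary with 100 for all four spots passing and 0 otherwise; about 2 pmol printed per array spot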
# ID4 SMM = ID4 (human) binding | small molecule microarray, Flag-ID4 binding, fluorescence F/B | calls only | 31,000 compounds, 1.2% hits | AID 624137;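 active means spot signal over background at p below 0.07 in all four prints; compounds were printed on slides so no solution concentration is given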;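 further: a binder raises fluorescence above local background on the spot; about 2 pmol printed per array spot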
# Target sequence (P47928 whole entry, looked up): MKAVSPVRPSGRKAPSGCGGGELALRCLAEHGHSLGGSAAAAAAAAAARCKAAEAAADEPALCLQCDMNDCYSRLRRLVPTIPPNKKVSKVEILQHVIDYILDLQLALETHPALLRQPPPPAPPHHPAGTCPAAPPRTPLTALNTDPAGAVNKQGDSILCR
# STAT3 SMM = binders of human STAT3; 17,000 compounds, 0.2% hits; calls only; Small molecule microarray, His-STAT3 binding, anti-His fluorescence; P40763;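 active means compounds whose four printed spots each show fluorescence over background unusually high for their array block, chance value under 7%; compounds were printed on slides so no solution concentration is given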;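 further: about 2 pmol printed per array spot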
# Target sequence (P40763 whole entry, looked up): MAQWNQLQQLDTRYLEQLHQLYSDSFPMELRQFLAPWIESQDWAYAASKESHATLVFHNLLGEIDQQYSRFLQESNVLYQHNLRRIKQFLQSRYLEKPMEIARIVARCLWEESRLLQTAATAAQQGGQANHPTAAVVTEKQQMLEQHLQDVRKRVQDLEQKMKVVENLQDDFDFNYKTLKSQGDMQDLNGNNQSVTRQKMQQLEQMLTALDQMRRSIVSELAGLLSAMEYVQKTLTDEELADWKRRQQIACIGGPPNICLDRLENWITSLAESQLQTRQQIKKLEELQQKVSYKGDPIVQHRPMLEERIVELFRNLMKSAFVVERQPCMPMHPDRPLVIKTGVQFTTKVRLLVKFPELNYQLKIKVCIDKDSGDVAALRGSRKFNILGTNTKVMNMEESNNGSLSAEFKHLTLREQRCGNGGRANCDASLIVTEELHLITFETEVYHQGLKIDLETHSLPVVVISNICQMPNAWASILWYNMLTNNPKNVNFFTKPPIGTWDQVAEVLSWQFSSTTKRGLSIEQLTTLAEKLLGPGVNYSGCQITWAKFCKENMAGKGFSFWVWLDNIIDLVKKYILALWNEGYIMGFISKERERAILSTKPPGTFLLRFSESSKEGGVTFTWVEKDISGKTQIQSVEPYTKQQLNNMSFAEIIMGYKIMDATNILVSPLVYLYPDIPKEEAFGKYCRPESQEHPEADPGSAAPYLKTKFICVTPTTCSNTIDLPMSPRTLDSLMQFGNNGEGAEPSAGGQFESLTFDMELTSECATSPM
# Calls only; i = inactive; x = not tested or not shown; + = active, no number.
SMILES,p53 mut binder,Myc binder,ID4 SMM,STAT3 SMM
COc1ccc(CN2CCCC2C(=O)Nc2ccc(OC)c(OC)c2)cc1OC (stereo unspecified),i,i,i,i
COc1cc([C@@H]2c3cc4c(cc3C(OC3OC5COC(C)OC5C(O)C3O)C3OCC(=O)[C@@H]32)OCO4)cc(OC)c1O (stereo partly specified),i,i,x,i
Clc1ccc2c(c1)nc(SCc1nnc(-c3ccccc3)o1)n2C1CCCCC1,i,i,i,i
C[C@]12CCC3C4(C=CC5(C=C4C(=O)c4cc6ccccc6s4)C[C@@H](O)CC[C@]35C)C1CC[C@@]2(O)CN1CCC(n2c(=O)[nH]c3ccccc32)CC1 (stereo partly specified),i,i,i,i
C[C@@H]1CN([C@@H](C)CO)C(=O)c2cccc(NC(=O)Nc3ccc(C(F)(F)F)cc3)c2O[C@H]1CN(C)CC1CC1,i,i,i,i
O=C1CC(c2ccc(O)cc2)Oc2cc(O[C@@H]3O[C@H](CO)[C@@H](O)[C@H](O)[C@H]3O)cc(O)c21 (stereo partly specified),i,i,i,i
CCOC(=O)NC(=O)CSc1ccccn1,i,i,i,i
O=C(CCc1nc2ccccc2[nH]1)Nc1ccc(F)cc1,i,i,i,i
c1ccc(-c2ccc(C(c3ccccc3)n3ccnc3)cc2)cc1 (stereo unspecified),i,i,i,i
O=C(C1=C[C@@H](c2ccc(C(F)(F)F)cc2)C[C@@H](OCc2ccc(CO)cc2)O1)N1CCCCCCC1,i,i,x,i
COc1c(C2OCC(O)C(O)C2O)c(O)cc2oc(-c3ccc(OC4OC(C)C(O)C(O)C4O)cc3)cc(=O)c12 (stereo unspecified),i,i,i,i
Cc1noc(C)c1NC(=O)N(C)C[C@H]1Oc2ccc(NC(=O)C3CC3)cc2CC(=O)N([C@@H](C)CO)C[C@@H]1C,i,i,i,i
Cc1cc(C(=O)Nc2cccc3c2O[C@@H](CN(C)Cc2ccc(C(F)(F)F)cc2)[C@H](C)CN([C@H](C)CO)C3=O)n(C)n1,i,i,i,i
Cc1ccnc(SCC(=O)c2ccc([N+](=O)[O-])cc2)n1,i,i,i,i
C[C@H](CO)N1C[C@H](C)[C@H](CN(C)C(=O)Nc2ccccc2)Oc2c(NC(=O)c3ccc(-c4nccs4)cc3)cccc2C1=O,i,i,i,i
C[C@@H]1CCCCO[C@@H](CN(C)S(=O)(=O)c2cccs2)[C@@H](C)CN([C@@H](C)CO)C(=O)c2cc(NC(=O)CCCN(C)C)ccc2O1,i,i,+,i
O=C(O)CN(Cc1ccccc1Cl)S(=O)(=O)c1ccc(Br)cc1,i,i,i,i
C[C@H](CO)N1C[C@H](C)[C@@H](CN(C)Cc2ccc(C(F)(F)F)cc2)Oc2ccc(NC(=O)Nc3ccc4c(c3)OCO4)cc2C1=O,i,i,i,i
COc1ccc(/C=C/C(=O)O[C@@H]2[C@@H](O)[C@@H](O)[C@H](O[C@@H]3C=C(CO)[C@H]4[C@H](O[C@@H]5O[C@H](CO)[C@@H](O)[C@H](O)[C@H]5O)OC=C[C@H]43)O[C@H]2C)cc1O,i,i,x,i
Cc1noc(C)c1NC(=O)Nc1cccc2c1O[C@@H](CN(C)C(=O)Nc1ccc(F)cc1)[C@@H](C)CN([C@H](C)CO)C2=O,i,i,x,i
Cc1oc(-c2cc(Cl)cc(Cl)c2)cc1C(=O)NCc1ccco1,i,i,i,i
C[C@@H]1CN([C@H](C)CO)C(=O)c2cc(NC(=O)Nc3ccc(F)cc3)ccc2O[C@H]1CN(C)Cc1ccncc1,i,i,i,i
C[C@@H]1CN([C@@H](C)CO)C(=O)c2cc(NC(=O)NC3CCCCC3)ccc2O[C@H]1CN(C)Cc1ccc(C(=O)O)cc1,i,i,i,i
CNC[C@@H]1Oc2ccc(NC(=O)C3CC3)cc2CC(=O)N([C@H](C)CO)C[C@H]1C,i,i,i,i
C[C@H]1CN([C@@H](C)CO)C(=O)Cc2cc(NC(=O)Cc3ccccc3)ccc2O[C@@H]1CN(C)Cc1ccncc1,i,i,i,i
# The list goes on.
SMILES,p53 mut binder,Myc binder,ID4 SMM,STAT3 SMM
Cc1noc(C)c1NC(=O)Nc1cccc2c1O[C@H](CN(C)C(=O)NC1CCCCC1)[C@H](C)CN([C@H](C)CO)C2=O,i,i,i,i
Cc1noc(C)c1S(=O)(=O)N(C)C[C@@H]1Oc2ccc(NS(=O)(=O)c3cn(C)cn3)cc2C(=O)N([C@@H](C)CO)C[C@@H]1C,i,i,i,i
COc1ccc(S(=O)(=O)Nc2ccc3c(c2)C(=O)N([C@@H](C)CO)C[C@@H](C)[C@H](CN(C)C(=O)Nc2ccc4c(c2)OCO4)OCCCC[C@@H](C)O3)cc1,i,i,x,i
C/C=C1\C(O[C@@H]2O[C@H](CO)[C@@H](O)[C@H](O)[C@H]2O)OC=C(C(=O)OC)C1CC(=O)OCC(O)c1ccc(O)c(O)c1 (stereo partly specified),i,i,i,i
C[C@H](CO)N1C[C@H](C)[C@H](CN(C)C(=O)Nc2ccc(C(F)(F)F)cc2)Oc2ccc(NS(C)(=O)=O)cc2CC1=O,i,i,i,i
COC(=O)c1c(NC(=O)c2cc(-c3ccccn3)nc3ccc(Br)cc23)sc(C(=O)N(C)C)c1C,i,i,i,i
O=[N+]([O-])c1ccc(OCc2nc(-c3ccccn3)no2)cc1,i,i,i,i
O=c1c(-c2ccc(O[C@@H]3O[C@H](CO)[C@@H](O)[C@H](O)[C@H]3O)cc2)coc2c([C@@H]3O[C@H](CO)[C@@H](O)[C@H](O)[C@H]3O)c(O)cc(O)c12,i,i,i,i
COc1ccc(S(=O)(=O)N(C)C[C@@H]2Oc3c(NC(=O)Nc4c(C)noc4C)cccc3C(=O)N([C@@H](C)CO)C[C@H]2C)cc1,i,i,i,i
O=C(c1ccccc1)C(c1ccccc1)n1nnc2ccccc21 (stereo unspecified),i,i,i,i
C[C@@H]1CN([C@@H](C)CO)C(=O)c2cc(NC(=O)Nc3cccc4ccccc34)ccc2O[C@@H]1CN(C)C(=O)Nc1ccccc1,i,i,x,i
COc1ccc(C(=O)NCCSc2ccccn2)cc1,i,i,i,i
COc1cccc(/C=C/c2cc(C(F)(F)F)[nH]c(=O)n2)c1OCC(=O)O,i,i,i,i
C[C@@H]1CN([C@@H](C)CO)C(=O)Cc2cc(NC(=O)C3CC3)ccc2O[C@H]1CN(C)C,i,i,i,i
C[C@H](CO)N1C[C@H](C)[C@@H](CN(C)C(=O)Nc2cccc3ccccc23)Oc2ccc(N(C)C)cc2CC1=O,i,i,i,i
COc1cc(S(=O)(=O)Nc2cccnc2)ccc1F,i,i,i,i
CNC[C@H]1Oc2ccc(NC(=O)Nc3c(C)noc3C)cc2CC(=O)N([C@H](C)CO)C[C@@H]1C,i,i,i,i
C[C@H]1CN([C@@H](C)CO)C(=O)Cc2cc(NS(=O)(=O)c3cccs3)ccc2O[C@@H]1CN(C)Cc1ccc2c(c1)OCO2,i,i,x,i
C[C@@H]1CN([C@H](C)CO)C(=O)Cc2cc(NS(C)(=O)=O)ccc2O[C@H]1CN(C)CC1CC1,i,i,i,i
C[C@H]1CN([C@@H](C)CO)C(=O)c2cccc(NC(=O)c3ccc(-c4nccs4)cc3)c2O[C@@H]1CN(C)C(=O)Nc1ccccc1,i,i,i,i
COCCOC(=O)N1C(=O)[C@@]2(c3cc(C#CC4(O)CCCCCC4)ccc31)[C@H](C(=O)N1CCN(c3ncccn3)CC1)[C@H]1C(=O)O[C@H](c3ccccc3)[C@H](c3ccccc3)N1[C@@H]2c1ccc(O)cc1,i,i,x,i
C[C@H](CO)N1C[C@H](C)[C@@H](CN(C)C(=O)NC2CCCCC2)Oc2c(NC(=O)NC3CCCCC3)cccc2C1=O,i,i,i,i
C[C@@H]1CN([C@@H](C)CO)C(=O)c2cccc(NS(=O)(=O)c3ccccc3)c2O[C@@H]1CN(C)C(=O)Nc1ccccc1,i,i,i,i
COc1ccc(CN(C)C[C@@H]2Oc3ccc(NC(=O)Nc4ccc(F)cc4)cc3CC(=O)N([C@H](C)CO)C[C@@H]2C)cc1,i,i,i,i
O=C(Nc1ccccc1)NC1(c2cn(CC(=O)N3CCN(c4ccccc4)CC3)nn2)CCCCC1,i,i,i,i

# Complete entries, quoted from the list. Order of screens: p53 mut binder | Myc binder | ID4 SMM | STAT3 SMM
# C[C@@H]1CN([C@@H](C)CO)C(=O)Cc2cc(NC(=O)C3CC3)ccc2O[C@H]1CN(C)C in the list: i | i | i | i
# C[C@H](CO)N1C[C@H](C)[C@@H](CN(C)C(=O)NC2CCCCC2)Oc2c(NC(=O)NC3CCCCC3)cccc2C1=O in the list: i | i | i | i
# COC(=O)c1c(NC(=O)c2cc(-c3ccccn3)nc3ccc(Br)cc23)sc(C(=O)N(C)C)c1C in the list: i | i | i | i

# Three entries out of the list, arranged by count of non-hydrogen atoms, lowest first:
SMILES,p53 mut binder,Myc binder,ID4 SMM,STAT3 SMM
O=[N+]([O-])c1ccc(OCc2nc(-c3ccccn3)no2)cc1,i,i,i,i
COc1cccc(/C=C/c2cc(C(F)(F)F)[nH]c(=O)n2)c1OCC(=O)O,i,i,i,i
C[C@H](CO)N1C[C@H](C)[C@H](CN(C)C(=O)Nc2ccc(C(F)(F)F)cc2)Oc2ccc(NS(C)(=O)=O)cc2CC1=O,i,i,i,i

# The main list resumes with the 2 entries that preceded the break.
SMILES,p53 mut binder,Myc binder,ID4 SMM,STAT3 SMM
COc1ccc(CN(C)C[C@@H]2Oc3ccc(NC(=O)Nc4ccc(F)cc4)cc3CC(=O)N([C@H](C)CO)C[C@@H]2C)cc1,i,i,i,i
O=C(Nc1ccccc1)NC1(c2cn(CC(=O)N3CCN(c4ccccc4)CC3)nn2)CCCCC1,i,i,i,i
COc1ccc(-c2coc3cc(O[C@@H]4O[C@H](CO)[C@@H](O)[C@H](O)[C@H]4O)ccc3c2=O)cc1,i,i,x,i
C[C@@H]1CN([C@H](C)CO)C(=O)Cc2cc(NC(=O)NC3CCCCC3)ccc2O[C@@H]1CN(C)C(=O)Nc1ccccc1,i,i,i,i
COCCSc1nnc(NC(=O)c2sc3ccccc3c2Cl)s1,i,i,i,i
C[C@@H]1CN([C@@H](C)CO)C(=O)c2cc(NC(=O)C3CCCCC3)ccc2O[C@H]1CN(C)Cc1ccc(C(=O)O)cc1,i,i,x,i
O=C(NC(=S)Nc1ccc(Cl)c(C(=O)O)c1)c1cccc(COc2ccccc2)c1,i,i,+,i
Cc1noc(C)c1NC(=O)N(C)C[C@H]1Oc2ccc(NC(=O)C3CC3)cc2C(=O)N([C@H](C)CO)C[C@H]1C,i,i,i,i
O=c1[nH]c(CSCCO)nc2c1C1(CCCCC1)Cc1ccccc1-2,i,i,i,i
COC(=O)c1c(NC(=O)CCC(=O)O)sc2c1CC(C)(C)OC2,i,i,i,i
CCCC(O)C#Cc1cnc2c(c1)C(=O)N([C@H](C)CO)C[C@H](C)[C@H](CN(C)S(=O)(=O)c1ccccc1)O2 (stereo partly specified),i,i,i,i
Cc1cccc(NC(=O)CN2C(=O)CNC2=O)c1,i,i,i,i
C[C@@H]1CN([C@H](C)CO)C(=O)c2cccc(NC(=O)c3ccc(-c4nccs4)cc3)c2O[C@@H]1CN(C)C(=O)Nc1ccccc1,i,i,i,i
CCO[C@H]1OC(C(N)=O)=C[C@@H](c2ccc(Br)cc2)[C@@H]1CCCO,i,i,i,i
C[C@H](CO)N1C[C@H](C)[C@@H](CN(C)C(=O)Nc2cccc3ccccc23)Oc2c(cccc2N(C)C)C1=O,i,i,i,i
C[C@H](CO)N1C[C@H](C)[C@@H](CN(C)S(=O)(=O)c2cn(C)cn2)Oc2ccc(NC(=O)CCCN(C)C)cc2C1=O,i,i,i,i
C[C@@H]1CN([C@@H](C)CO)C(=O)c2cc(NC(=O)Cc3ccccc3)ccc2O[C@H]1CN(C)C(=O)Nc1ccc2c(c1)OCO2,i,i,i,i
Cc1ccc(S(=O)(=O)Nc2cc(S(=O)(=O)c3ccc(C)cc3)c(O)c3ccccc23)cc1,i,i,i,i
COc1ccc(NC(=O)N(C)C[C@@H]2Oc3c(NS(=O)(=O)c4c(C)noc4C)cccc3C(=O)N([C@H](C)CO)C[C@@H]2C)cc1,i,i,x,i
O=C(Nc1ccccc1)C1=C[C@H](C2CCCCC2)C[C@H](OCc2ccc(CO)cc2)O1,i,i,i,i
COc1ccc(-c2cn(CC(=O)N3CCOCC3)nn2)cc1OC,i,i,i,i
CCCCc1cc2ccccc2c(OCCN(C)C)n1,i,i,i,i
COc1ccc(S(=O)(=O)Nc2ccc3c(c2)CC(=O)N([C@@H](C)CO)C[C@@H](C)[C@@H](CN(C)S(=O)(=O)c2cn(C)cn2)O3)cc1,i,i,i,i
C[C@H](CO)N1C[C@H](C)[C@@H](CN(C)Cc2ccc3c(c2)OCO3)OCCCC[C@H](C)Oc2ccc(NS(=O)(=O)c3ccccc3)cc2C1=O,i,i,i,i
C[C@@H]1CN([C@@H](C)CO)C(=O)Cc2cc(NS(C)(=O)=O)ccc2O[C@H]1CN(C)C(=O)Nc1ccccc1,i,i,i,i
O=C(COc1ccc(Br)cc1)Nc1ccc(Cl)c(-c2nc3ncccc3o2)c1,i,i,i,i
C[C@H]1CN([C@@H](C)CO)C(=O)c2cccc(NC(=O)c3nc4ccccc4s3)c2O[C@@H]1CN(C)C(=O)NC1CCCCC1,i,i,i,i
Cc1noc(C)c1NC(=O)Nc1ccc2c(c1)C(=O)N([C@@H](C)CO)C[C@@H](C)[C@H](CN(C)C(=O)C1CCCCC1)OCCCC[C@H](C)O2,i,+,i,i
C[C@@H]1CN([C@H](C)CO)C(=O)c2cccc(NC(=O)Nc3ccc(C(F)(F)F)cc3)c2O[C@H]1CN(C)S(=O)(=O)c1ccccc1,i,i,i,i

# A portion of the library; rates above refer to the full screens.
